PMP22 txn: modulates PMP22 transcription in S16 Schwann cells. S16 Pmp22-F2sN Schwann cells (luciferase reporters placed in the Pmp22 gene), FLuc/NLuc coincidence luminescence, 24 h. AID 1508649. Potency, µM (doses to about 57.5 µM), without a hit: at the top dose activity change, negative = inhibition, actives largely listed as inhibitors. actives 2% (n = 43,000); active = clear falling dose curves in both reporters; inconclusive = both reporters move, but less clearly or upward; inactive = either reporter flat; the % is the NLuc reporter signal; note: % is set by controls: 0 for no effect and ±100 for the full control effect; some results filed as inactive show a strong effect at the top dose
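Luminescent read-out of sequential FLuc and NLuc signals from a reporter embedded in the Pmp22 3' UTR of S16 Schwann cells, taken after 24 h compound exposure at 37C; compounds reducing both signals score as inhibitors of expression.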
HTT prom inh: inhibitors of huntingtin promoter activity. HEK293 HTT promoter firefly luciferase reporter (activity 0% = vehicle and -100% = no light), 24 h. actives 0.93% (n = 48,000). Potency, µM (top dose mostly 57.5 µM), for inactives: top-dose activity change, negative = inhibition, actives largely listed as inhibitors. AID 1508623; active = well fitted inhibition curve with a large enough effect; inconclusive = small, poorly fitted or top-dose-only effect; inactive = no such curve, though single readings can be large or run the other way; note: nearly all actives have a fitted effect of over 50% in size
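HEK293 luciferase promoter-reporter cells (2,500/well) plated 24 h, then compounds added at up to 57.5 uM final for 24 h at 37 °C. Firefly luminescence by Dual-Glo, normalized to vehicle (0%) and zero RLU (-100%).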
The depositor's hits bear a star; & = joins results of further samples. Potency is the fitted concentration of half-maximal effect.

Cc1ccc(NC(=O)c2sc3ncn(Cc4cccc(F)c4)c(=O)c3c2C)c(Br)c1 was read as PMP22 txn -20% and HTT prom inh 20%.
`COc1cccc(CNC(=O)Cc2ccc(NC(=O)N3CCSc4ncccc43)cc2)c1OC` gave PMP22 txn -10% and HTT prom inh inconclusive.
For COc1ccc(Nc2ncc(C(=O)Nc3cc(Cl)c(OC)cc3OC)c3ccccc23)cc1 the results were PMP22 txn -30% and HTT prom inh -13%.
`CCC(=O)N1CCc2cc(CNC(=O)Nc3cc(Cl)ccc3C(=O)OC)ccc21` gave PMP22 txn -15% and HTT prom inh -26%.
`Cc1cccc(C(=O)NCC(c2ccco2)S(=O)(=O)c2cccs2)c1` (stereo not drawn) gave PMP22 txn inconclusive and HTT prom inh -6%.
`CN(C)CCCN1c2ccccc2CCc2ccc(Cl)cc21` gave HTT prom inh inconclusive.
`CCc1ccccc1NC(=O)c1cc(S(=O)(=O)NC2CCCC2)ccc1F` gave PMP22 txn 5% and HTT prom inh -25%.
`Cc1c(Cl)cccc1NC(=O)c1cccc(NC(=O)N2CCSc3ncccc32)c1` gave PMP22 txn -28% and HTT prom inh inconclusive.
Screening Cn1c(=O)oc2cc(S(=O)(=O)N3CCC(C(=O)N4CCN(c5ccc(Cl)cc5)CC4)CC3)ccc21 returned PMP22 txn 13µM* and HTT prom inh inconclusive.
Screening COc1ccc(C(CNC(=O)c2oc3cc(C)c(C)cc3c2C)N2CCCCC2)cc1 (stereo not drawn) returned PMP22 txn inconclusive and HTT prom inh -5%.

Not a retest: entries from further up.
Screening Cn1c(=O)oc2cc(S(=O)(=O)N3CCC(C(=O)N4CCN(c5ccc(Cl)cc5)CC4)CC3)ccc21 returned PMP22 txn 13µM* and HTT prom inh inconclusive.
Screening COc1ccc(C(CNC(=O)c2oc3cc(C)c(C)cc3c2C)N2CCCCC2)cc1 (stereo not drawn) returned PMP22 txn inconclusive and HTT prom inh -5%.

New compounds follow.
Screening CCOc1ccc(CCNC(=O)c2ccc(CS(=O)Cc3ccc(Cl)cc3)o2)cc1 (stereo not drawn) returned PMP22 txn -10% and HTT prom inh inconclusive.
`COc1ccc(NC(=O)N2CCN(S(=O)(=O)c3ccc4c(ccn4C)c3)CC2)cc1OC` gave PMP22 txn 60% and HTT prom inh -2%.
Cc1cccc(NC(=O)c2c(NC(=O)c3cccs3)sc3c2CCC(C)C3)c1 (stereo not drawn) was read as PMP22 txn -16% and HTT prom inh 11%.
Screening O=C(NCc1ccc(Cl)cc1)c1cnc(N2CCOCC2)c2ccccc12 returned PMP22 txn -23% and HTT prom inh inconclusive.
Screening COc1ccccc1CNC(=O)Cn1ncc2c3ccccc3n(Cc3ccccc3C)c2c1=O returned PMP22 txn inconclusive and HTT prom inh 6%.
Cc1ccc(CCNC(=O)C2CC(=O)N(CCc3ccccc3)C2)cc1 (stereo not drawn) was read as PMP22 txn 0% and HTT prom inh -6%.
`Cc1ccc(NC(=O)CCS(=O)(=O)c2ccc3nc(C)sc3c2)c(C)c1` gave PMP22 txn -55% and HTT prom inh -4%.
For CCOc1ccc(Nc2ncnc3c2nc2n3CCCC2)cc1 the results were PMP22 txn -11% and HTT prom inh -10%.
For CC(=O)c1ccc(N2CCN(C(=O)CCn3cnc4onc(-c5ccc(F)cc5)c4c3=O)CC2)cc1 the results were PMP22 txn inconclusive and HTT prom inh 4%.
`CC(C)OC(=O)C(C)(C)Oc1ccc(C(=O)c2ccc(Cl)cc2)cc1` gave HTT prom inh -4%&-2%.
Screening COc1cccc(C(=O)Nc2c(C(=O)Nc3ccc(F)cc3)oc3ccccc23)c1OC returned PMP22 txn -17% and HTT prom inh 10%.
Screening CCOC(=O)c1c(-c2ccc(Br)cc2)csc1NC(=O)c1ccccc1F returned PMP22 txn -7% and HTT prom inh -9%.
Screening COc1cc(NC(=O)CN2CCN(S(=O)(=O)c3ccc(Br)cc3)CC2)cc(OC)c1 returned PMP22 txn -9% and HTT prom inh -11%.
For c1coc(CNc2ncnc3nc[nH]c23)c1 the results were HTT prom inh -10%.
Screening CSc1ncc2c(n1)-c1ccccc1N(Cc1ccccc1)S2(=O)=O returned PMP22 txn -5% and HTT prom inh -21%.
Screening CC(C)CCOc1ccc(Cn2c(=O)oc3ccccc32)cc1 returned PMP22 txn -17% and HTT prom inh 10%.
For Cc1ccc(Cl)cc1NC(=O)C(=O)NCC(c1cccnc1)N1CCc2ccccc21 (stereo not drawn) the results were PMP22 txn inconclusive and HTT prom inh inconclusive.
For COc1ccc(-c2cnnn2-c2ccc(NC(=O)c3ccccc3OC)cc2)cc1 the results were PMP22 txn inconclusive and HTT prom inh inconclusive.
Screening COc1ccc(CNC(=O)Cn2ncc3c4ccccc4n(Cc4cccc(Cl)c4)c3c2=O)cc1 returned PMP22 txn 4% and HTT prom inh -8%.
`COC(=O)c1c(NC(=O)Cc2coc3cc(C)ccc23)sc2c1CCC2` gave PMP22 txn -12% and HTT prom inh -8%.
COCCN(CCOC)S(=O)(=O)c1ccc(C(=O)Nc2sc3c(c2C(N)=O)CCCC3)cc1 was read as PMP22 txn inconclusive and HTT prom inh -20%.
`COc1ccc(-c2noc(N3CCC(C(=O)N4CCN(c5cccc(C)c5C)CC4)CC3)n2)cc1` gave PMP22 txn inconclusive and HTT prom inh inconclusive.
Screening CC(=O)Nc1ccc(NC(=O)CCS(=O)(=O)c2ccc3c(c2)CC(=O)N3C)cc1 returned PMP22 txn 10% and HTT prom inh -8%.
Cn1nnc2c(N3CCN(c4ccc(F)cc4)CC3)ncnc21 was read as PMP22 txn -28% and HTT prom inh -26%.
Cc1ccc(NC(=O)NCCOCCn2c(=O)oc3ccccc32)cc1F was read as PMP22 txn -23% and HTT prom inh -7%.
Screening CCc1ccc(CNC(=O)c2cc(-c3ccc(Br)s3)nc3ccccc23)cc1 returned PMP22 txn -35% and HTT prom inh -2%.
`CCS(=O)(=O)NCC(c1ccco1)N1CCN(c2ccc(OC)cc2)CC1` (stereo not drawn) gave PMP22 txn 5% and HTT prom inh -10%.
`Cc1ccc(-c2nc3scc(CCNS(=O)(=O)c4ccc(Oc5ccccc5)cc4)n3n2)cc1` gave PMP22 txn inconclusive and HTT prom inh 20µM*.
`CC(=O)c1ccc(NC(=O)c2nn(C)c3c2COc2ccccc2-3)cc1` gave PMP22 txn inconclusive and HTT prom inh 3%.
COc1cc(NC(=O)c2c(C)nn(-c3ccc(F)cc3)c2-n2cccc2)cc(OC)c1 was read as PMP22 txn -3% and HTT prom inh -20%.
Screening Cc1ccc(CNC(=O)Cn2c(=O)n(-c3ccc(C)cc3)c(=O)c3c2c2cc(C)ccc2n3C)cc1 returned PMP22 txn -8% and HTT prom inh 8%.
Screening Cc1oc2c(cc(NS(=O)(=O)c3ccc(C(C)C)cc3)c3ccccc32)c1C(=O)O returned PMP22 txn -2% and HTT prom inh -14%.
`Nc1ncnc2c1nc(Cl)n2[C@@H]1O[C@H](CO)[C@@H](O)[C@@H]1O` gave HTT prom inh inconclusive.
For Cc1cc(C)c2sc(N(Cc3cccnc3)C(=O)CCOc3ccccc3)nc2c1 the results were PMP22 txn inconclusive and HTT prom inh -29%.
Screening CCOc1cc2c(cc1OCC)C(CC(=O)OC)N(C(=O)Nc1cc(OC)ccc1OC)CC2 (stereo not drawn) returned PMP22 txn inconclusive and HTT prom inh inconclusive.
Screening Cc1cc(C(=O)NCc2ccccc2Cl)c2c(C)nn(-c3ccccc3)c2n1 returned PMP22 txn -58% and HTT prom inh -1%.
For COc1cccc(-n2cc(C(=O)OCc3ccc(Cl)cc3)c3ccccc3c2=O)c1 the results were PMP22 txn -1% and HTT prom inh -24%.
`Cc1ccccc1NC(=O)c1oc2c(c1C)-c1nn(Cc3cccc(Cl)c3)cc1CC2` gave PMP22 txn inconclusive and HTT prom inh -13%.
`CCC12CN3CC(C)(CN(C1)C3c1ccc(O)cc1O)C2=O` (stereo not drawn) gave PMP22 txn 11% and HTT prom inh -15%.
`COc1cccc(CNC(=O)Cn2nc(C)c3sc4ccccc4c3c2=O)c1OC` gave PMP22 txn 5% and HTT prom inh -7%.
For CCOC(=O)c1ccccc1NC(=O)Cn1cc(C(=O)c2cccc(OC)c2)c(=O)c2ccc(C)nc21 the results were PMP22 txn 0% and HTT prom inh -8%.
`CCc1cnc2c(c1SCC(=O)NCc1ccc(C)cc1)c(=O)n(C)c(=O)n2C` gave PMP22 txn -11% and HTT prom inh -38%.
For CCOC(=O)O[C@]1(C(=O)OCCl)CC[C@H]2[C@@H]3CCC4=CC(=O)C=C[C@]4(C)[C@H]3[C@@H](O)C[C@@]21C the results were HTT prom inh 10%.
For CC(=O)Nc1c(C)nn(-c2ccccc2)c1N1CCC(C(=O)NCc2ccc(F)cc2)CC1 the results were PMP22 txn 6% and HTT prom inh -11%.
For O=C(CCC1N=C2c3ccccc3N=C(SCc3ccc(Cl)cc3)N2C1=O)NC1CCCCC1 (stereo not drawn) the results were PMP22 txn inconclusive and HTT prom inh -17%.
Screening Cc1noc(/C=C/c2ccco2)c1S(=O)(=O)N1CCC(C(=O)Nc2ccc(F)c(Cl)c2)CC1 returned PMP22 txn 12µM* and HTT prom inh 32µM*.
For CCN(Cc1ccccc1)S(=O)(=O)c1cc(Br)cc2c1N(C(=O)C1CC1)CC2 the results were PMP22 txn inconclusive and HTT prom inh inconclusive.
Screening Cc1ccc(S(=O)(=O)Nc2cccc(-c3ccc(N4CCCCC4)nn3)c2)s1 returned PMP22 txn -14% and HTT prom inh 5%.
Screening COc1cccc(CNC(=O)c2ccc(CN3CC(=O)N4CCCCC4C3=O)cc2)c1 (stereo not drawn) returned PMP22 txn -21% and HTT prom inh -20%.
For O=C(CN1C(=O)C2(SCC(=O)N2c2ccccc2)c2ccccc21)NCc1ccccc1 (stereo not drawn) the results were PMP22 txn 5% and HTT prom inh -22%.

Entries shown so far that contain bromine, in the order listed:
Cc1ccc(NC(=O)c2sc3ncn(Cc4cccc(F)c4)c(=O)c3c2C)c(Br)c1 was read as PMP22 txn -20% and HTT prom inh 20%.
Screening CCOC(=O)c1c(-c2ccc(Br)cc2)csc1NC(=O)c1ccccc1F returned PMP22 txn -7% and HTT prom inh -9%.
Screening COc1cc(NC(=O)CN2CCN(S(=O)(=O)c3ccc(Br)cc3)CC2)cc(OC)c1 returned PMP22 txn -9% and HTT prom inh -11%.
Screening CCc1ccc(CNC(=O)c2cc(-c3ccc(Br)s3)nc3ccccc23)cc1 returned PMP22 txn -35% and HTT prom inh -2%.
For CCN(Cc1ccccc1)S(=O)(=O)c1cc(Br)cc2c1N(C(=O)C1CC1)CC2 the results were PMP22 txn inconclusive and HTT prom inh inconclusive.

(further entries)
Screening COc1cc(OC)cc(-c2cc3nc(C)c(CCC(=O)Nc4ccc(F)c(Cl)c4)c(C)n3n2)c1 returned PMP22 txn 4% and HTT prom inh 1.6µM*.
`COc1ccccc1CNC(=O)C(CC(C)C)NS(=O)(=O)c1ccc2c(c1)oc(=O)n2C` (stereo not drawn) gave PMP22 txn 16% and HTT prom inh -12%.
CN(C(=O)c1ccc2c(c1)N(Cc1ccc(F)cc1)C(=O)c1ccccc1S2(=O)=O)C1CCCCC1 was read as PMP22 txn inconclusive and HTT prom inh -29%.
`COc1ccc(-c2cc(C(F)(F)F)nc(SCC(=O)NCc3ccc(Cl)cc3)n2)cc1` gave PMP22 txn inconclusive and HTT prom inh -5%.
O=C(CNS(=O)(=O)c1ccc(Br)s1)N1CCN(c2ccc(F)cc2)CC1 was read as PMP22 txn inconclusive and HTT prom inh inconclusive.
Screening COC(=O)c1ccc(CSc2c(C(C)C)cnc3c2c(=O)n(C)c(=O)n3C)cc1 returned PMP22 txn inconclusive and HTT prom inh -1%.
`Cc1cc(C)cc(Oc2coc3cc(OCC(=O)NC4CCCCC4)ccc3c2=O)c1` gave PMP22 txn inconclusive and HTT prom inh -11%.
For CCN(CC)CCCNC(=O)CSc1c2c(nc3cc(Cl)ccc13)CCCC2 the results were PMP22 txn 6.7µM* and HTT prom inh inconclusive.
`COc1ccc(NC(=O)CSC2=Nc3ccccc3C3=NC(CC(=O)NCc4ccc5c(c4)OCO5)C(=O)N23)cc1` (stereo not drawn) gave PMP22 txn inconclusive and HTT prom inh 0%.
Screening CCOc1ccc(C2C(C(N)=O)=C(C)Nc3nc(SCc4ccccc4)nn32)cc1 (stereo not drawn) returned PMP22 txn 9% and HTT prom inh -5%.
`O=C(CCCCn1c(=O)c2ccccc2n(Cc2ccccc2F)c1=O)NCc1ccccc1Cl` gave PMP22 txn inconclusive and HTT prom inh 1%.
Screening Cc1ccc2c(c1)NC(=O)C(CC(=O)Nc1ccccc1Cl)O2 (stereo not drawn) returned PMP22 txn -11% and HTT prom inh 3%.
Cn1c(SCc2ccccc2F)nc2c([nH]c3ccccc32)c1=O was read as PMP22 txn -3% and HTT prom inh 3%.
For O=C(Cn1ncc2c3ccccc3n(Cc3ccccc3)c2c1=O)N1CCCCCC1 the results were PMP22 txn -10% and HTT prom inh 5%.
`CCOC(=O)CC(NS(=O)(=O)c1cc(-c2cc(C)no2)ccc1C)c1ccc(C)cc1` (stereo not drawn) gave PMP22 txn inconclusive and HTT prom inh inconclusive.
`Cc1ccc(S(=O)(=O)c2nnn3c2nc(N2CCN(c4ccc(F)cc4)CC2)c2cc(Cl)ccc23)cc1C` gave PMP22 txn 2% and HTT prom inh 9%.
For O=C(c1ccc(F)cc1)N1CCC(c2nc(-c3ccc(S(=O)(=O)N4CCCC4)cc3)no2)CC1 the results were PMP22 txn -11% and HTT prom inh -9%.

Bioassay records: PubChem BioAssay, National Center for Advancing Translational Sciences (NCATS)

This is a random part of the collection. About 2.4% of those tested had a hit in this group.
